Compound activity as filed in PubChem BioAssay.
Six1-Eya2 inh: qHTS Assay for Inhibitors of the Six1/Eya2 Interaction | Homeobox protein SIX1 (Homo sapiens) + Protein phosphatase EYA2 (Homo sapiens), … | AlphaScreen GST-Six1/His-Eya2 binding, biochemical; hits give low values; control for the full effect not named in the record | activity change, % (test concentration not listed) | 360,000 tested, 0.56% active; in the data active = activity change below about -65%; inconclusive = about -30% to -65%; inactive = above about -30%; note: % is set by controls: 0 for no effect and ±100 for the full control effect; compound concentration not given in the record
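AlphaScreen luminescence read after one hour at 37 °C in darkness. Pin-transferred compounds met GST-Six1 and His-Eya2 protein (5X stock 250 nM/500 nM) plus glutathione donor and Ni-chelate acceptor beads (5X, 50 ug/mL).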
PINK1 expr mod: A Quantitative High throughput Screen to Identify Chemical Modulators of PINK1 Expression; PINK1 immunofluorescence, high-content cytometry, 24 h; AID 624263, 2012; 410,000 tested, 0.2% active; Potency, µM (doses to about 76.6 µM), without a hit: at the highest dose activation (PINK1 increase), actives largely listed as activators; active = well fitted activation curve with a large enough effect; inconclusive = small, poorly fitted or top-dose-only effect; inactive = flat fitted curve, though single readings scatter; cell line not stated here;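 note: potency is the fitted concentration of half-maximal effect; % of control where 0% means no effect; nearly all actives have a fitted effect of over 65% in size; a mitochondrial uncoupler was the plate control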
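A stable cell line was treated with compounds at 5 concentrations for 24 hours, with CCCP as control. PINK1 levels and mitochondrial localization were measured by immunofluorescence with mitochondrial, cell and nuclear markers after fixation, read by laser-scanning cytometry.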
D2 PAM: Beta-Arrestin HTS for Positive Allosteric Modulators of the Human D2 Dopamine Receptor: Potentiators. D(2) dopamine receptor (Homo sapiens), P14416. DiscoveRx D2 beta-arrestin cells, luminescence, 90 min; 100% = 57 uM dopamine signal. potentiation, % (concentration not given with the values). 360,000 tested, 0.23% active. AID 624464, 2012; active = potentiation of 50% or more; inconclusive = 30% to 50%; inactive = 30% or less;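 note: compound concentration not given in the record; tested on top of an EC20 dose of dopamine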
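PathHunter D2 cells, attached overnight at 37 deg C, received compound in DMSO plus dopamine at EC20 (50 nM final) for 90 min at 37 deg C. Beta-arrestin recruitment was read as luminescence after 1 h with detection reagent at ambient temperature.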
TRPV1 PAM: HTS Assay for Compounds that Act as Potentiators of the Vanilloid Receptor 1; AID 540277, 2011; potentiation, % at 8.33 µM; 320,000 tested, 0.02% active; Transient receptor potential cation channel subfamily V member 1 (Homo sapiens), Q8NER1; TRPV1-expressing cells, Fluo-8 calcium influx, capsaicin EC20 potentiation; host cell line not named in the record; control for the full effect not named in the record; active means potentiation above 80%; inconclusive means 30% to 80%; inactive means below 30%; note: 0% is about no effect
Target sequence (Q8NER1 whole entry, looked up): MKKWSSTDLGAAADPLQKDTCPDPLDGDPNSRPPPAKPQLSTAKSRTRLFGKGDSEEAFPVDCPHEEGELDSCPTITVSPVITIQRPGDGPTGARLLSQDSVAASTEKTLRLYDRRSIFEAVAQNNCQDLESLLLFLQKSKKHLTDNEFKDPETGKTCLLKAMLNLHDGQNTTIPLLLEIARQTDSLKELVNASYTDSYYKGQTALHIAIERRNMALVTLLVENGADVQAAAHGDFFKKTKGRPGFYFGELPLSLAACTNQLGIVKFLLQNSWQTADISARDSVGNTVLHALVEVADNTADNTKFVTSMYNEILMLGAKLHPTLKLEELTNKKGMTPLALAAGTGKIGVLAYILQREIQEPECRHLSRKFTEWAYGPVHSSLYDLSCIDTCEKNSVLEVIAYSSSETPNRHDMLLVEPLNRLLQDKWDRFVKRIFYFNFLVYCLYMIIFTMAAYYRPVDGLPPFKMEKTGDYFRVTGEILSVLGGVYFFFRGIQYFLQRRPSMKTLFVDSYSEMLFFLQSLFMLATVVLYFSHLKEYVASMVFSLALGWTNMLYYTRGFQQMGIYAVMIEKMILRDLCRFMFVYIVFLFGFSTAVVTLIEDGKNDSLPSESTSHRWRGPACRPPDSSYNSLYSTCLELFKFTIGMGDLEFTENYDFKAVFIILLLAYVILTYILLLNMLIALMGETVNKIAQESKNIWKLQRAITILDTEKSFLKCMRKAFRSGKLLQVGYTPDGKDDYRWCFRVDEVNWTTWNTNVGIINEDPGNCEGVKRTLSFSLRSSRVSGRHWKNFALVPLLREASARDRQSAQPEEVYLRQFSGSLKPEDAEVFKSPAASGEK
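TRPV1-expressing cells were cultured overnight at 35.5C and loaded with Fluo-8 calcium dye for 40 to 90 min at room temperature. After a 10 s baseline, compound was added and calcium influx was read kinetically for 3 min (ex 480/em 520 nm).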
Sfp inh: qHTS Assay for Inhibitors of Bacillus subtilis Sfp phosphopantetheinyl transferase (PPTase) | AID 1490, 2009 | Potency, µM, for inactives: max response, negative = inhibition, usual class: inhibitors | 310,000 tested, 3.5% active | Biochemical Sfp PPTase activity, qHTS; active = well fitted inhibition curve with a large enough effect; inconclusive = small, poorly fitted or top-dose-only effect, or another doubt; inactive = no such curve, though single readings can be large or run the other way;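 note: the enzyme is Sfp with the accession as filed and its product quenches rhodamine fluorescence; potency is the fitted concentration of half-maximal effect; 0% = enzyme reaction without inhibitor and -100% = no enzyme wells; top concentration of the series not given in the record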
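Step 1, compound plus 15 nM Sfp-PPTase, 15 min, room temperature. Step 2, add rhodamine-CoA (5 uM) and BHQ-2-YbbR (12.5 uM). Step 3, read 525/598 nm fluorescence at 0 and 30 min.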
D2 agonist: Beta-Arrestin HTS for Positive Allosteric Modulators of the Human D2 Dopamine Receptor: Agonists; DiscoveRx PathHunter D2 beta-arrestin, luminescence, 90 min; 100% = 57 uM dopamine signal; activation, % (concentration not given with the values); 360,000 tested, 0.084% active; in the data active = activation above about 40%; inconclusive = about 15% to 40%; inactive = below about 15%; note: compound concentration not given in the record; the text of the record calls up to 30% inactive
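DiscoveRx PathHunter D2 beta-arrestin cells (2,100/well) attached overnight, then compound-stimulated 90 min at 37 C in HBSS/10 mM HEPES/0.1% Tween-20 buffer; beta-galactosidase complementation read by luminescence after 1 h at ambient temperature. Dopamine 57 uM final (EC100) as control.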
CtBP-E1A inh: qHTS Assay for Inhibitors of the CtBP/E1A Interaction; CtBP / adenovirus E1A interaction (AlphaScreen); AlphaScreen GST-E1A/His-CtBP binding, 1536-well; hits give low values; control for the full effect not named in the record; activity change, % (concentration not given with the values); 340,000 tested, 0.49% active; in the data active means activity change below about -65%; inconclusive means about -30% to -65%; inactive means above about -30%; note: % is set by controls: 0 for no effect and ±100 for the full control effect
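Protein mix (5X: 125 nM each GST-E1A, His-CtBP) was incubated with pinned compound 2 h at 37 deg C in dark, in 50 mM Tris pH 8.0 buffer with 300 mM NaCl. Glutathione donor and nickel acceptor beads followed; AlphaScreen signal read after 1 h.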
* marks the source's active call; other numbers are inactive results; ? = inconclusive; · = not tested or not shown; & = joins results of further samples; [ ] = remark or other dose. Hits appear at their usual frequency; any-hit rate near 3.7%.

SMILES	Six1-Eya2 inh	PINK1 expr mod	D2 PAM	TRPV1 PAM	Sfp inh	D2 agonist	CtBP-E1A inh
COC(=O)c1ccccc1NC(=O)NCCc1ccccc1OC	-1	-2.1%	-6	6	2%	4.3	14
Cc1cc(-c2nn(C)c(=O)c3ccccc23)cc(C)c1O	-4	10%	-19	-15	20%	-4.7	·
C=CCn1c(SCC(=O)NC2CCCCC2)nnc1C1CCCCC1	16	-1.0%	-4	-14	15%	-0.5	-6
O=C(NCc1ccco1)[C@@H]1CCCN1C(=O)c1cccs1	-4	2.8%	-17	-8	-1%	-1.4	0
Cc1cc(C)c2[nH]c(=O)c(CN(Cc3cccs3)C(=S)NCc3ccco3)cc2c1	-17	-0.3%	-9	7	7%	-0.2	-25
O=C(Nc1ccc(N2CCOCC2)cc1)c1cc(-c2ccncc2)nc2ccccc12	0	0.2%	12	·	-3%	3.5	11
Cc1nn(CC#N)c(=O)n1-c1ccccc1	1	0.5%	-1	-1	17%	-1.2	1
CCOC(=O)c1c(N)sc2c1CCCC2	-10	0.7%	-1	9	?	-3.1	0
O=C(O)CCC(=O)OCCN(Cc1ccc(Oc2ccc([N+](=O)[O-])cc2)cc1)C(=O)C(Cl)Cl	-6	-4.9%	-20	·	·	-3.4	2
CCCC(=Nc1ccccc1)C1=C(O)C(C(=O)OC)C(C)(C)CC1=O (stereo unspecified)	5	-1.1%[38.3 µM]	2	8	5%	-1.7	-1
CCc1nc2nc(C)c(NS(=O)(=O)c3ccc(C4CCCCC4)cc3)c(=O)n2[nH]1	-7	0.4%	-1	-34	21%	5.1	-5
CSc1ccccc1NC(=O)CN(C)C(=O)C1CCN(C(=O)Nc2ccccc2)CC1	3	0.8%	7	?	·	2.8	-21
COC(=O)C[C@@H]1C[C@H]2c3cc(NS(C)(=O)=O)ccc3O[C@H]2[C@H](CO)O1	12	-2.2%	-9	·	·	4.0	-26
COc1ccc(C(=O)N2CCOC2CNC(=O)C(=O)NCc2ccc3c(c2)OCO3)cc1 (stereo unspecified)	1	0.7%	-5	-6	10%	3.1	-1
NNc1nc2ccc(F)cc2s1	-23	3.0%	-26	-2	-19%	-7.0	-1
Cc1cccc(C(=O)NC2CCN(C(=S)NCc3ccco3)CC2)c1	-9	-5.3%[38.3 µM]	8	·	7%	-0.1	-12
C#C[C@]1(O)CC[C@H]2[C@@H]3CCc4cc(O)ccc4[C@H]3CC[C@@]21C	6	0.0%	-8	2	11%&-7%	4.0	0
Cc1ccc(NC(=O)CN(C)C(=O)c2cccc(S(=O)(=O)N3CCc4ccccc4C3)c2)cc1	1	0.6%	-23	·	·	-1.4	5
O=C(Nc1cccc2ncccc12)c1ccc(OCc2ccccc2)cc1	-6	4.6%	-2	-4	4%	-4.7	4
CC1CN(CC(=O)Nc2nc3ccccc3s2)CC(C)O1 (stereo unspecified)	1	-1.8%	0	8	9%	8.9	4
CCCOc1ccc(/C=C/C(=O)NC2CCCCC2)cc1OC	6	3.7%	-4	6	18%	0.0	8
CC(C)COc1ccc(C(=O)Nc2ccc([N+](=O)[O-])cc2)cc1	-17	-1.1%	-19	-7	-9%	-6.6	-3
Cc1cc(C)cc(C(=O)N(c2ccccn2)C(C)c2ccco2)c1 (stereo unspecified)	-2	0.3%[38.3 µM]	-1	-5	10%	-3.6	5
COC(=O)COc1ccc(Cl)cc1C1Nc2ccccc2C(=O)N1c1ccc(OC)cc1 (stereo unspecified)	-2	3.4%[38.3 µM]	0	11	-1%	0.1	6
O=C(O)c1cn(Cc2ccccc2Cl)c2ccc(S(=O)(=O)N3CCOCC3)cc2c1=O	-1	-0.7%	5	4	18%	-0.4	·

Structural class, the compounds so far with a thiophene ring, fused or not (three)
SMILES	Six1-Eya2 inh	PINK1 expr mod	D2 PAM	TRPV1 PAM	Sfp inh	D2 agonist	CtBP-E1A inh
O=C(NCc1ccco1)[C@@H]1CCCN1C(=O)c1cccs1	-4	2.8%	-17	-8	-1%	-1.4	0
Cc1cc(C)c2[nH]c(=O)c(CN(Cc3cccs3)C(=S)NCc3ccco3)cc2c1	-17	-0.3%	-9	7	7%	-0.2	-25
CCOC(=O)c1c(N)sc2c1CCCC2	-10	0.7%	-1	9	?	-3.1	0

The list continues.
SMILES	Six1-Eya2 inh	PINK1 expr mod	D2 PAM	TRPV1 PAM	Sfp inh	D2 agonist	CtBP-E1A inh
CC(=O)c1cccc2c1OC(C)C(=O)N2Cc1ccc(Cl)cc1 (stereo unspecified)	6	0.7%	-5	·	·	4.1	8
CCN(CC)S(=O)(=O)c1ccc(C(=O)NC(=S)N(CCO)Cc2ccccc2)cc1	-1	2.2%	-14	7	3%	-6.5	-8
CCc1ccccc1NC(=O)c1ccc(Cn2cc([N+](=O)[O-])cn2)cc1	-5	2.4%	-4	9	3%	-6.5	2
CCCCNc1nc2c(c(=O)n(C)c(=O)n2C)n1CCC	0	3.9%	-3	26	5%	-3.0	3
CC(CCc1ccco1)NC(=O)Nc1cccc(F)c1 (stereo unspecified)	-3	11%[38.3 µM]	-18	-5	11%	-2.6	-2
CCNC(=O)C1CCCN(Cc2ccc(C)c3ccccc23)CC1 (stereo unspecified)	3	1.3%	-10	·	·	-4.4	6
Cc1cc(OCC(=O)NC2CC(C)(C)NC(C)(C)C2)c2c(C)cc(=O)oc2c1	14	0.3%	-4	7	8%	-7.7	28
O=C(OCc1nnc(-c2cccs2)o1)c1cccnc1Cl	-1	-0.6%	-2	1	·	2.4	-7
COC(=O)CC1C(=O)NCCN1C(=O)c1ccc2oc(C(C)C)nc2c1 (stereo unspecified)	1	-1.3%	-3	19	14%	1.7	11
COc1c(C)cc(C(=O)C2CCCN(C(=O)c3csc(C)n3)C2)cc1C (stereo unspecified)	0	1.4%	-5	-2	26%	-4.0	5
CCN(CCO)C(=O)CC1C(=O)NCCN1Cc1c(F)cccc1Cl (stereo unspecified)	6	0.3%	-3	1	2%	-3.9	6
O=C(C(=O)N1CCCCC1)c1cn(CC(=O)N2CCCCCC2)c2ccccc12	-10	1.4%	-11	13	4%	-1.8	7
C=CCNC(=O)c1c(Cl)cccc1Cl	5	0.3%	-11	16	19%	-1.1	14
CCc1nc2c(OCCOc3ccccc3)cccn2c1N(C)C(=O)c1ccc(OC)cc1	-9	0.8%	-5	·	·	-3.2	-10
CCOC(=O)CC(Nc1nc(N2CCOCC2)nc(N2CCOCC2)n1)c1ccccc1Cl (stereo unspecified)	-1	-0.6%	-9	·	-5%	-2.1	-8
Cn1c(CC(=O)Nc2cccc(Cl)c2Cl)nnc1SCC(=O)NC1=NCCS1	3	0.6%	-6	4	12%	-1.9	-12
CC1CCC(NC(=O)Cn2c3c(c(-c4ccccc4Cl)cc2=O)CCC3)CC1 (stereo unspecified)	-1	12%	-12	-12	-1%	-2.0	-12
CCCCn1c(N)c(N(CC(C)C)C(=O)c2oc3ccc(OCC)cc3c2C)c(=O)[nH]c1=O	1	11%	-22	21	11%	0.7	1
COc1ccc(OC)c(NC(=O)CC2(CC(=O)O)CCCC2)c1	4	2.9%	2	0	11%	-4.7	-4
Cn1c(=O)c2c(-c3ccccc3)n(-c3ccccc3)cc2n(C)c1=O	-5	-0.9%	1	·	·	-1.8	-2
Cc1nnc(-c2cnn(C)c2N)n1Cc1ccc(Cl)cc1	2	-1.2%	-18	-2	1%	-3.1	0
COC(=O)CCC(=O)OC1(C)C(=O)C2=CN(CCCOC(C)C)C(c3ccc(OC)cc3)=CC2=C(Br)C1=O (stereo unspecified)	-14	0.5%	-6	-32	-19%	7.0	·
Cc1ccc(NC(=O)CN(C)C(=O)Cn2cc(C(F)(F)F)cc(Cl)c2=O)cc1	7	-0.9%	-19	1	9%	-5.6	16
COc1ccc(C2C(=O)c3ccccc3C2=Nc2ccc(Br)cc2)cc1 (stereo unspecified)	-15	4.3%	-5	4	1%	-3.9	-18
Cc1cccc(NC(=O)CSc2nnc(-c3cc(C)n(-c4ccccc4)c3C)o2)c1C	-15	1.3%	-15	16	-4%	-3.2	-20
SMILES	Six1-Eya2 inh	PINK1 expr mod	D2 PAM	TRPV1 PAM	Sfp inh	D2 agonist	CtBP-E1A inh
CCn1c2ccccc2c2cc(NC(=O)COC(=O)c3cccc(S(=O)(=O)NC)c3)ccc21	-16	1.5%	-31	19	2%	0.8	-17
N#C/C(=C(/O)CN1CCCC1)c1nc(-c2ccccc2)cs1	-6	2.4%	-6	·	32µM*	-4.6	-4
Cc1ccc(S(=O)(=O)N2[C@@H](c3ccc(F)cc3)C(C(=O)O)=C[C@H]2CC2CCCC2)cc1	-1	-0.7%	-4	·	·	-0.5	0
CCc1ccc(-c2cc(C(=O)N/N=C/c3c[nH]c4ccccc34)[nH]n2)cc1	-12	0.7%	-14	-7	0%	2.0	-15
N#CCSc1nc(-c2ccccc2)nc2ccc(F)cc12	10	6.6%	-8	-10	20%	1.2	·
CC(C)(C)Nc1nc(NC(C)(C)C)nc(-n2ccnc2)n1	-2	0.8%	17	-9	12%	-0.9	-2
CCCN(CCC)CC(O)CN1C(=O)NC(C)(C)C1=O (stereo unspecified)	6	-0.5%	-12	3	3%	0.9	-11
CCCCn1nc(C(=O)N(C)C2CCCCC2)c2ccccc2c1=O	7	0.7%	9	-19	·	-1.1	·
CCOC(=O)c1c2n(c3ccc(O)cc13)CCC2	-6	0.3%	4	-5	4%	0.5	8
COC(=O)CNC(=O)c1ccc2c(c1)S(=O)(=O)c1ccccc1C2=O	0	-0.1%	30	-14	8%	-1.9	1
N#CC(C#N)=NNc1ccc2cn[nH]c2c1	-26	-0.2%	-18	·	·	-8.8	-21
COc1ccc(O)c(/C=N/n2c(-c3ccco3)csc2=Nc2cccnc2)c1	?	18%	1	5	1%	2.9	?
COc1ccc(N2CCN(C(=O)COCc3cc(-c4ccc5c(c4)OCO5)on3)CC2)cc1	0	5.7%&-0.5%	-10	5	-6%	2.5	-15
